# Source: PubChem BioAssay (ICCB-Longwood Screening Facility, Harvard Medical School)
# HCMV UL50-53 inh: cytomegalovirus nuclear egress complex inhibition | HTRF UL50-UL53 interaction, normalized percent inhibition | inhibition, % (concentration not given with the values) | actives 0.15% (n = 190,000) | AID 1918969;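 active = both replicates at 50% or more, plus weaker picks with an unusually low signal ratio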;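 note: stock transfer was 100 nL into about 20 µL; 0% = negative control wells and 100% = wells with untagged competitor protein; inactives centre near -12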
# GIV-Gai inh: inhibitors of GIV GBA-motif binding to rat Galpha-i3; actives 0.42% (n = 210,000); P08753; Galpha-i3/FITC-GIV peptide fluorescence polarization, 90 min; hits give low values; scaled: aluminum fluoride 0%, vehicle 100%; AID 1224905; percent of control (FP), % (test concentration not listed);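 active = replicate mean at 85% of control or lower, very high polarization wells dropped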;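 note: wells of about 15 µL received 100 nL stock; the first replicate is given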
# Target sequence (P08753 whole entry, looked up): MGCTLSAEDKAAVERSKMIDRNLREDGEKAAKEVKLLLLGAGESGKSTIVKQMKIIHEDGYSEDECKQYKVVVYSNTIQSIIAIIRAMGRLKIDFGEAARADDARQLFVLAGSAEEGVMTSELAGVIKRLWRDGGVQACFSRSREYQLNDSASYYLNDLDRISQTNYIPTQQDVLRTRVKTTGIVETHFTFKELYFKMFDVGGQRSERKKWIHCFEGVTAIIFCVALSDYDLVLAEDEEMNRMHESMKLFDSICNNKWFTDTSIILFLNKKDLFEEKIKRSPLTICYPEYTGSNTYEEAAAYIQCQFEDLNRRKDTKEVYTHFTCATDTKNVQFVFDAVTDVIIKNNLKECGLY
# Sa growth 42C: inhibitors of Staphylococcus aureus growth at 42 °C; S. aureus RN4220 growth, OD600, 20 h; hits give low values; relative growth, % (test concentration not listed); actives 0.53% (n = 170,000); AID 720641;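 active = growth at 42 °C up to 50% and 20 or more points under that at 30 °C, or under 10% at both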;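 note: 300 nL library stock went into each well; scaled to the means of positive and negative controls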
# Sa growth 42C second temp: second read-out of Sa growth 42C, no call of its own (marks repeat the call); relative growth, %; measured here: growth at 30 °C;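 optical density after 20 h as mean of two plates; 100% = untreated growth and lower means inhibition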
# Numbers without * were called inactive; . = not tested or not shown; & = joins results of further samples.
SMILES,Sa growth 42C second temp,Sa growth 42C,HCMV UL50-53 inh,GIV-Gai inh
O=C1NC(Nc2ccccn2)(C(F)(F)F)C(=O)N1c1ccc(F)cc1 (stereo unspecified),93,82,-12,109
Cc1ccccc1-c1noc(-c2ccc(OC(=O)c3ccccc3)cc2)n1,87,95,-26,107
CCC(=O)Oc1ccc(Br)cc1/C=C1\Sc2ccccc2C1=O,102,104,.,147
O=C(Cc1ccc(F)cc1)NCCc1csc2nc(-c3cccc(F)c3)nn12,.,.,-5,101
COC(=O)COc1ccc(Oc2nc(NC(C)(C)C)nc(N3CCOCC3)n2)nn1,95,94,-27,101
Cc1ccccc1C(=O)NC#N,84,120,-6,.
O=C(NCc1ccccc1)/C(=N\O)c1ccccc1,63,98,-14,102
CCCCCn1c(=O)[nH]c2cc(C(=O)Nc3cc(OC)c(OC)c(OC)c3)ccc2c1=O,88,78,-35,99
O=C(Cc1ccccc1)N/N=C/c1ccccc1F,97,94,-14,107
CC(C)(C)N1C(=O)c2ccc(C(=O)Nc3nccs3)cc2C1=O,86,99,-18,.

# Other entries
SMILES,Sa growth 42C second temp,Sa growth 42C,HCMV UL50-53 inh,GIV-Gai inh
O=C(O)c1ccccc1N(Cc1ccccc1)C(=O)c1ccccc1O,92,118,-24,.
O=C(c1ccc(NC2CCCC2)nn1)N1CCc2ccccc21,.,.,16,108
Cc1ccsc1C(=O)OC(C(=O)c1c[nH]c2ccccc12)c1ccccc1 (stereo unspecified),85,142,-24,.
COc1ccc(C2NC(=O)NC3=C2C(=O)CC(C)(C)C3)cc1OC (stereo unspecified),92,116,-37,.
COc1ccc(OC)c(NS(=O)(=O)c2c(C)nc3sc4ccccc4n3c2=O)c1,.,.,-16,107
Cc1ccc(NC(=O)CN2C(=O)C(C)(C)c3cc(S(=O)(=O)N4CCCCC4)ccc32)c(Br)c1,91,130,.,109
CCOc1cccc(C(=O)Nc2ccc3oc(-c4cccnc4)nc3c2)c1,88,102,-27,104
CCOc1ccc(NC(=O)CN2C(=O)C(CC)SC(CC)C2=O)cc1 (stereo unspecified),83,83,-41,102
CCOC(=O)c1ccc(NC(=O)CCCc2nc(-c3cc(OC)c(OC)c(OC)c3)no2)cc1,79,95,-21,96
CCOC(=O)/C(C#N)=C1\CC2CCC1(C)C2(C)C (stereo unspecified),109,85,6,109

# Other results follow.
SMILES,Sa growth 42C second temp,Sa growth 42C,HCMV UL50-53 inh,GIV-Gai inh
N#Cc1ccc(-c2cccs2)nc1SCC(=O)c1cc2ccccc2oc1=O,.,.,11,101
Cc1cc2nn(CN3CCOCC3)c(=S)n2c2ccccc12,86,78,-35,.
Cn1nnnc1SCC(=O)OC1CCCCC1,91,100,0,104
CCSc1nc(O)c(C(C)CC)c(=O)[nH]1 (stereo unspecified),88,87,.,102
Cc1ccc(NCc2cc(=O)n3[nH]c(NCc4ccc(C(C)C)cc4)nc3n2)cc1Cl,.,.,-1,116
COC(=O)c1cccc(NC2=CC(C)(C)CC(=O)C2)c1,82,87,-4,100
Cc1nn(Cc2nnc(-c3ccccc3Cl)o2)c(C)c1Br,89,114,0,107
O=C1c2ccccc2C(=O)N1Cc1ccc2[nH]c3c(c2c1)CCCC3,97,110,.,100
O=C(COc1ccc2oc3c(c2c1)CCCC3)Nc1cccnc1,89,121,-15,.
Cc1c(S(=O)(=O)c2ccc(Cl)cc2)csc1C(=O)N(C)c1nnc(C(F)(F)F)s1,89,96,-16,101

# Other results
SMILES,Sa growth 42C second temp,Sa growth 42C,HCMV UL50-53 inh,GIV-Gai inh
CCOC(=O)C1=C(C)N=c2s/c(=C\c3ccc(OC(C)=O)c(OC)c3)c(=O)n2C1c1ccc(OC)c(OC)c1 (stereo unspecified),.,.,-24,111
S=C(NCc1ccco1)N1CCC2(CC1)OCCO2,100,135,8,108
COC(=O)c1cc(Cl)nc2ccccc12,89,102,-55,103
Cc1ccc(NC(=O)CSCc2c(C)noc2C)cc1C,96,90,-1,.
NS(=O)(=O)c1ccc2c(c1)C1C=CCC1C(c1ccc(Br)cc1)N2 (stereo unspecified),.,.,-23,124
N#Cc1ccc(CNC(=O)Nc2ccccc2)cc1,81,88,-22,106
N#Cc1c(Nc2cccc(F)c2)sc(C(=O)c2ccc(Cl)cc2)c1N,87,100,-74,111
Cc1ccccc1OCC(=O)N(Cc1ccco1)Cc1ccco1,72,86,-10,102
CCCS(=O)(=O)N1CCC(N2CCN(Cc3ccc(C)cc3)C(=O)C2=O)CC1,87,108,-4,102&94
CCCCOc1ccc(-c2cc3c(=O)n(CC(=O)Nc4ccc(Cl)cc4Cl)ccn3n2)cc1,99,105,-20,105

# The list goes on.
SMILES,Sa growth 42C second temp,Sa growth 42C,HCMV UL50-53 inh,GIV-Gai inh
CCCn1c(=O)n(-c2ccccc2)c(=O)c2sc3ccccc3c21,96,86,2,101
CCNc1cc(Nc2ccc(C)c(Cl)c2)c([N+](=O)[O-])c2nonc12,.,.,-21,107
O=C(Nc1ccc(NC(=O)c2ccco2)cc1)c1ccc2c(c1)OCCO2,.,.,-7,103
Cc1ccc2[nH]c(=O)c3cc(C(=O)NCCCN4CCC(C)CC4)sc3c2c1,78,100,-51,117
COc1ccc(NC(=O)c2ccco2)cc1NC(=O)c1ccc(C#N)cc1F,100,93,-56,98
Cc1ccc(CN2CCCn3nc(C(=O)NC(C)C)cc3C2=O)cc1,90,91,.,94
O=C1c2ccccc2C(=O)N1CCC(=O)N1CCCc2ccccc21,.,.,-6,108
CCOc1ccccc1NC(=O)C1CCN(C(=O)c2ccccc2)CC1,73,95,-25,100
Cc1ccc(-c2nnc3c4ccccc4c(C)nn23)cc1NC(=O)c1cccc(Br)c1,94,88,-22,106
CCCOC(=O)c1sc2nc3c(c(-c4cccs4)c2c1N)CCC3,82,84,-37,101

# (further entries)
SMILES,Sa growth 42C second temp,Sa growth 42C,HCMV UL50-53 inh,GIV-Gai inh
O=C(c1ccc(Cl)cc1)N(c1ccccn1)c1ccccn1,97,132,12,.
c1ccc(-c2nnc3sc(C4COc5ccccc5O4)nn23)nc1 (stereo unspecified),.,.,-3,102
CCOC(=O)c1nc(NC(C)C)c2ccccc2n1,110,103,9,111
CCC(Nc1ccc(Br)cc1)C(=O)N/N=C/c1cccnc1 (stereo unspecified),30,77,-54,105
Cc1cccc(CSc2ncn[nH]2)c1,.,.,-11,105
COc1ccc(Nc2ncnc3c2nnn3Cc2ccccc2Cl)c(OC)c1,88,108,-40,98
Cc1ccc(-n2nc(CO)c(C(=O)NCCO)n2)cc1,92,96,-28,95
COC1(C2=NCCN2)COc2ccccc2O1 (stereo unspecified),.,.,-11&-10,102
Fc1ccc(-c2ccc(CNCC3CCNCC3)o2)cc1Cl,.,.,-15,104
CC(NC(=O)C1COc2ccccc2O1)C(=O)O (stereo unspecified),93,73,11,101

# (continued)
SMILES,Sa growth 42C second temp,Sa growth 42C,HCMV UL50-53 inh,GIV-Gai inh
C=CCn1c(COc2ccccc2F)nnc1SC1CCOC1=O (stereo unspecified),99,120,13,.
Cc1nc2ccc(NS(=O)(=O)c3ccccc3Cl)cc2o1,91,84,-14,100
O=C(CCSCc1ccc(Cl)cc1)NCCc1ccccc1,98,119,.,105
N=c1c(C(=O)NCC2CCCO2)cc2c(=O)n3ccccc3nc2n1CCCO (stereo unspecified),84,106,-158,105
Cc1ccc(S(=O)(=O)Nc2cc(C(=O)O)cnc2N2CCC(Cc3ccccc3)CC2)cc1C,.,.,-18,102
CCOc1ccc(S(=O)(=O)N2CCC(C(=O)N/N=C/c3ccc(-c4ccc(F)cc4)o3)CC2)cc1,97,96,-16,.
Cc1ccc(CNS(=O)(=O)c2c(C(=O)N3CCCC3)c(C)n(C)c2C)cc1,79,105,-25,100
Cc1noc(C)c1COC(=O)/C=C/c1cn(Cc2ccccc2)nc1-c1cccs1,97,83,-29,.
Cc1cc(Sc2nnc3c(n2)[nH]c2ccccc23)n2c(nc3ccccc32)c1C#N,88,79,-34,.
COc1ccc(CNC(=S)N2CCCC(C(F)(F)F)C2)cc1 (stereo unspecified),87,88,-22,.

# A draw from above in order of molar mass, rising.
SMILES,Sa growth 42C second temp,Sa growth 42C,HCMV UL50-53 inh,GIV-Gai inh
Cc1ccc(CNS(=O)(=O)c2c(C(=O)N3CCCC3)c(C)n(C)c2C)cc1,79,105,-25,100
N=c1c(C(=O)NCC2CCCO2)cc2c(=O)n3ccccc3nc2n1CCCO (stereo unspecified),84,106,-158,105
Cc1noc(C)c1COC(=O)/C=C/c1cn(Cc2ccccc2)nc1-c1cccs1,97,83,-29,.

# (continued)
SMILES,Sa growth 42C second temp,Sa growth 42C,HCMV UL50-53 inh,GIV-Gai inh
Cc1ccc(Cn2cc(C(=O)Nc3ccc(-n4cnnn4)c(C)c3)nn2)cc1,.,.,-14,102
CN1C=C(C(N)=O)C=CC1=C1C(=O)c2ccccc2C1=O,87,97,-47,.
COc1ccc(OC)c(NC(=O)c2nnn(CC(=O)Nc3ccc(C(C)C)cc3)c2N)c1,83,102,.,100
CC(C)(C)OC(=O)N1CCC(c2nc3c(nnn3Cc3ccccc3Cl)c(=O)[nH]2)CC1,0.5*,0.3*,.,104
N#CCn1c(COC(=O)Cc2ccc3c(c2)OCCO3)nc2ccccc2c1=O,91,117,2,.
CCOC(=O)c1sc(N)c(C#N)c1COC(=O)CSc1nnc(-c2ccco2)o1,88,94,-10,.
Cc1ccc(CCNC(=O)c2ccc3c(c2)nc2n3CCCCC2)cc1,101,97,.,105
N#CC1=C(N)C(C#N)(C#N)C2(C(=O)N(Cc3ccccc3)c3ccccc32)C2CCCC=C12 (stereo unspecified),49,65,-15,.
CC(O)c1cc(-c2ccc(Cl)cc2Cl)no1 (stereo unspecified),87,88,-22,98
Cc1ccc(NS(=O)(=O)c2ccc3c(c2)oc(=O)n3C(=O)Oc2ccccc2)cc1,93,90,.,96

# Next part:
SMILES,Sa growth 42C second temp,Sa growth 42C,HCMV UL50-53 inh,GIV-Gai inh
CCOC(=O)C1CCN(C(=O)COC(=O)/C=C/c2ccccc2)CC1,90,77,-53,.
O=C(c1cc(-c2cccs2)on1)N1CCCc2ccccc21,79,124,.,97
CCOc1ccc(-n2c(SCc3ccccc3)nnc2-c2cccnc2)cc1,72,82,-8,.
CSc1nnc(SC)n1CCNC(=O)Nc1cccc(Cl)c1,91,81,3,101
Cc1cc(C)c(S(=O)(=O)Nc2ccc(-c3ccc(N4CCCCC4)nn3)cc2)cc1C,99,124,.,105
Cc1ccc2c(c1)NC(=O)c1cccnc1O2,93,110,-7,104
Cc1ccccc1Nc1nc(N)nc(COc2ccc(F)c(Cl)c2)n1,96,82,-21,.
COc1ccccc1/C(N)=N/O,86,94,-32,.
Cn1c(=O)c2c(-c3ccccc3Br)n(Cc3ccccc3)cc2n(C)c1=O,84,101,-35,104
FC(F)Oc1ccccc1C=NCc1cn2ccccc2n1,91,99,-23,.

# Additional results follow.
SMILES,Sa growth 42C second temp,Sa growth 42C,HCMV UL50-53 inh,GIV-Gai inh
Cc1nc2cc(-c3ccccc3)nn2c(C)c1CCC(=O)N1CCC(Cc2ccccc2)CC1,.,.,9,98
O=C(NCCN1CCN(S(=O)(=O)c2ccc3ccccc3c2)CC1)C(=O)Nc1ccc(Cl)cc1,.,.,-21,97
CCOC(=O)c1cc(-c2ccccc2)n(-c2ccccc2C)n1,80,85,.,98
Cc1ccc2c(Sc3ccc(Cl)cc3)c(C(=O)N3CCCCC3)[nH]c2c1,63,91,3,103
COc1cc(OC)c(NC(=O)N2CCSc3ccccc32)cc1Cl,91,85,.,102
O=C(c1cccnc1)n1nc(NCc2ccccc2)nc1NCc1ccccc1,102,115,11,106
Cc1ccc(C)c(NC(=O)CN2C(=O)C3(SCC(=O)N3c3ccc(C)c(C)c3)c3ccccc32)c1 (stereo unspecified),92,107,.,106
COc1ccc(-c2noc(COC(=O)/C=C/c3ccc(OC(F)F)cc3)n2)c(OC)c1,88,90,-42,.
Cc1cc(C)cc(-c2nnc(SC(C)c3nc4ccccc4c(=O)[nH]3)o2)c1 (stereo unspecified),89,98,-15,.
CC(C(=O)NC1CCCC1)N1CCN(c2ccccn2)CC1 (stereo unspecified),84,94,-15,.

# Next section.
SMILES,Sa growth 42C second temp,Sa growth 42C,HCMV UL50-53 inh,GIV-Gai inh
CC1=C(C(=O)Nc2ccccc2)C(CC(C)C)n2nc(SCc3cccc(C)c3)nc2N1 (stereo unspecified),95,78,.,103
CC1=C(C(=O)Nc2ccccc2F)C(c2ccsc2)C2=C(CC(C)(C)CC2=O)N1 (stereo unspecified),91,104,.,104
Cc1nn(-c2ccccc2)c2c1-c1sc(C(=O)NC3CCN(Cc4ccccc4)CC3)cc1CC2,.,.,-5,105
Cc1ccc(-c2c(C(F)(F)F)nn3c(NCC(C)C)cc(C)nc23)cc1,.,.,-18,95
O=C(COC(=O)/C=C/c1ccc(Br)o1)Nc1ccc2[nH]c(=O)[nH]c2c1,53,80,-43,.
CCc1ccccc1N(C)C(=O)c1cc2c(=O)oc3ccccc3c2s1,88,107,-23,104
CCCOc1ccc(C(=O)Nc2ccc3nn(-c4ccc(OC)c(Cl)c4)nc3c2)cc1,104,107,23,100
Cc1ccc(OC2CCS(=O)(=O)C2)cc1 (stereo unspecified),88,79,-24,100
CCNC(=O)N1CCCC(c2cccc(C(=O)NCCCN3CCCC3=O)c2)C1 (stereo unspecified),.,.,-20,109
